StopGo reporter – High Throughput Screening for Foot and Mouth Disease Virus Antivirals. hit rate 1.2% among 410,000. Potency, µM (top dose mostly 57.9 µM), for inactives: at the highest dose signal change, negative = less light. AID 1159524, 2015. human cells with a luciferase reporter of 2A StopGo recoding; control for the full effect not named in the record; active = well fitted falling curve with a large enough effect; inconclusive = small, poorly fitted or top-dose-only effect; inactive = no such curve, though single readings can be large or run the other way; tested in HEK293T cells; further: on the % scale 0 is the no-effect control and ±100 the full control effect; nearly all actives have a fitted effect of over 45% in size; luciferase light after 4 h
Cruzain Triton – qHTS Assay for Promiscuous and Specific Inhibitors of Cruzain (with detergent) | purified cruzain, Z-FR-AMC fluorescence, 0.01% Triton | Potency, µM, inactives show max response, negative = inhibition, most hits filed as inhibitors | hit rate 0.43% among 200,000; active means well fitted curve in the direction sought with a large enough effect; inconclusive means small, poorly fitted or top-dose-only effect, or another doubt; inactive means no such curve, though single readings can be large; an effect the other way counts as inactive or inconclusive;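 further: plate controls were neutral wells for no effect and buffer without enzyme for full effect; nearly all actives have a fitted effect of over 40% in size; top concentration of the series not given in the record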
Target sequence (P25779 123-467 limits assumed): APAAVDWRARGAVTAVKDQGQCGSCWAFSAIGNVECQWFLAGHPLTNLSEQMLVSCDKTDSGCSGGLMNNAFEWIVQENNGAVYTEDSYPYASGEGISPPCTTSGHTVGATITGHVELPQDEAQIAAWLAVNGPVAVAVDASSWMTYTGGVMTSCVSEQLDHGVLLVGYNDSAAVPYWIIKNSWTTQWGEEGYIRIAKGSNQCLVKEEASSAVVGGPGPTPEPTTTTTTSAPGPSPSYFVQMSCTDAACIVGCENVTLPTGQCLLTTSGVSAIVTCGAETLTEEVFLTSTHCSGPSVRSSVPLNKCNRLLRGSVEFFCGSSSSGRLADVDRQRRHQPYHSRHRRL
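Detergent-containing arm of a paired screen for aggregation-based inhibition: 0.01% Triton X-100 present. Cruzain at 1.5 nM cleaved 2 uM Z-FR-AMC at pH 5.5 with 5 mM DTT; AMC fluorescence gain over 60 s measured activity.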
RE007 growth inh – qHTS Assay for Inhibitors of the HIV-1 protein Vpr; S. pombe RE007 Vpr strain, BacTiter-Glo ATP luminescence, 24 h; control for the full effect not named in the record; hit rate 0.21% among 360,000; Potency, µM (series often up to 92.2 µM), for inactives: top-dose activity change, negative = less growth; active = well fitted falling curve with a large enough effect; inconclusive = small, poorly fitted or top-dose-only effect; inactive = no such curve, though single readings can be large or run the other way;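 further: on the % scale 0 is the no-effect control and ±100 the full control effect; nearly all actives have a fitted effect of over 50% in size; the assay follows cell death caused by Vpr and the record does not say whether a fall means rescue or toxicity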
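Fission yeast strain RE007, carrying one chromosomally integrated HIV-1 vpr copy, was seeded at OD 0.01 in PMG+AL medium with 23 nL pinned compound. After 24 h at 30 °C and 99% humidity, viability was read by BacTiter-Glo luminescence.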
SARS PLP yeast – qHTS of Yeast-based Assay for SARS-CoV PLP; S. cerevisiae expressing SARS-CoV PLpro, growth rescue; control for the full effect not named in the record; Potency, µM (highest dose often 32.9 µM), for inactives: at the highest dose activity, positive = growth rescue; hit rate 0.19% among 330,000; AID 485353, 2010; further: 0% is about no effect; nearly all actives have a fitted effect of over 55% in size; growth read by luminescence after 48 h
MARV entry inh – qHTS for inhibitors of binding or entry into cells for Marburg Virus; Marburg virus pseudotyped entry inhibition, cell reporter; control for the full effect not named in the record; about a third of the inactives were read at about 46 µM; Potency, µM (highest dose often 37.8 µM), inactives show at the top dose activity change, negative = inhibition, usual class: inhibitors; hit rate 1.8% among 300,000; AID 540276, 2011; active = well fitted inhibition curve with a large enough effect; inconclusive = small, poorly fitted or top-dose-only effect, or effect the other way; inactive = flat fitted curve, though single readings scatter; tested in HEK293 cells; about a fifth of its hits are not listed in these tables; further: on the % scale 0 is the no-effect control and ±100 the full control effect; luciferase read-out
NS1 inh – qHTS Assay for Inhibitors of Influenza NS1 Protein Function; S. cerevisiae slowed by influenza A NS1, growth recovery by OD600; Potency, µM (titrated, usually from 46.1 µM), for inactives: at the highest dose activity, positive = more growth; hit rate 0.4% among 270,000; AID 2326, 2010; further: actives are rising curves; nearly all actives have a fitted effect of over 50% in size
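A cell-based growth assay was used: compounds that relieve NS1-induced slow growth of budding yeast raise OD600. Assay medium was yeast nitrogen base with ammonium sulphate and -URA supplement, pH 6.0, with 2% galactose.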
Cruzain noTriton – qHTS Assay for Promiscuous and Specific Inhibitors of Cruzain (without detergent) | Cruzipain (Trypanosoma cruzi), P25779 | AID 1476, 2009 | hit rate 2.3% among 200,000 | purified cruzain, Z-FR-AMC fluorescence, no detergent | Potency, µM, inactives show max response, negative = inhibition, actives largely listed as inhibitors; active means well fitted curve in the direction sought with a large enough effect; inconclusive means small, poorly fitted or top-dose-only effect, or another doubt; inactive means no such curve, though single readings can be large; an effect the other way counts as inactive or inconclusive;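 further: plate controls were enzyme without inhibitor for no effect and buffer without enzyme for full effect; nearly all actives have a fitted effect of over 40% in size; top concentration of the series not given in the record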
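Detergent-free condition (0.00005% Triton X-100) in acetate buffer pH 5.5 with DTT. 1.5 nM enzyme and compound were pre-mixed 15 min, then 2 uM Z-FR-AMC substrate added; reaction progress from fluorescence change between first and third reads (60 s).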
Lassa entry inh – qHTS for Inhibitors of binding or entry into cells for Lassa Virus; Lassa virus pseudotype entry inhibition, cell reporter; control for the full effect not named in the record; Potency, µM (series often up to 37.9 µM), for the others: at the highest dose activity change, negative = inhibition, hits mostly inhibitors; hit rate 1.2% among 300,000; active means well fitted inhibition curve with a large enough effect; inconclusive means small, poorly fitted or top-dose-only effect, or effect the other way; inactive means flat fitted curve, though single readings scatter; tested in HEK293 cells; further: on the % scale 0 is the no-effect control and ±100 the full control effect; nearly all actives have a fitted effect of over 50% in size; luciferase read-out
Active calls of the source: *; u = inconclusive; x = not tested or not shown; & = joins results of further samples; [ ] = dose if it differs, or a comment. Unless noted, the call rests on the fitted dose curve; in most records, active means well fitted rising curve with a large enough effect; inconclusive means small, poorly fitted or top-dose-only effect; inactive means no such curve, though single readings can be large or run the other way. Potency means the concentration at half of the fitted maximal effect.

SMILES	StopGo reporter	Cruzain Triton	RE007 growth inh	SARS PLP yeast	MARV entry inh	NS1 inh	Cruzain noTriton	Lassa entry inh
OCCN1CCN(CC(O)COC(c2ccc(F)cc2)c2ccc(F)cc2)CC1 (stereo unspecified)	-2%	x	-13%	3%	2µM*	2%	x	u
NS(=O)(=O)c1ccc(CCNC(=O)Nc2ccc(Cl)cc2)cc1	-7%	-4.2%	-10%	3%	u	u	-7%	-14%
CC(=O)Nc1ccc(OC(F)(F)C(F)F)c(NC(C)=O)c1	x	-0.1%	-12%	7%	9%	3%	3%	13%
Cc1onc(-c2ccccc2)c1C(=O)NCCN1CCOCC1	1%	5.1%	-16%	x	10%	9%	-3%	7%
CCOc1ccccc1CNc1nnnn1C	-11%	x	14%	-3%	4%[46.1 µM]	3%	x	4%[46.1 µM]
CC(C)c1ccc(S(=O)(=O)Nc2ccc(-n3cnnn3)cc2)cc1	41%[activator]	x	14%	4%	u	x	x	u
O=C(c1ccco1)N1N=C(c2cccs2)CC1c1ccccc1O (stereo unspecified)	u	x	11%	4%	-27%	u	x	-4%
O=C(O)c1cc(-c2ccccc2)n(-c2ccc(F)cc2)n1	-14%	x	-6%	-1%	1%[46.1 µM]	13%	x	-3%[46.1 µM]
Cc1ccc(O)c(CNc2nc3ccccc3[nH]2)c1	44%[activator]	x	19%	-8%	x	15%	x	x
CCN1CCN(Cc2ccc(NC(=O)c3cc(NC(=O)c4ccc5n[nH]nc5c4)cc(OC)c3)cc2C(F)(F)F)CC1	-11%	x	-13%	-1%	x	-12%	x	x
COc1ccc(C2c3[nH]c4ccccc4c3CCN2C(=O)c2ccccc2C(C)=O)c(F)c1 (stereo unspecified)	-2%	x	-1%	2%	x	7%	x	x
CC(=O)N1CCCc2cc(S(=O)(=O)N3CCC(C(=O)NCc4ccc(F)cc4)CC3)ccc21	-12%	-2.0%	x	x	x	x	-2%	8%[46.1 µM]
CCOC(=O)Cc1csc2nc3sc(C)c(C)c3c(=O)n12	5%	-1.0%	11%	0%	-19%	-2%	-1%	2%
Cc1cc(-c2cc(-c3ccc(Cl)cc3)on2)nc(NC2CCCC2)n1	-7%	x	-3%	-9%	x	u	x	x
Cc1ccccc1CSCCNC(=O)CN(c1ccccc1)S(=O)(=O)N(C)C	-16%	-3.8%	x	x	u	x	16%	-23%[46.1 µM]
COc1ccc(OCC(=O)Nc2cc(OC)ccc2N2CCCCC2)cc1	u	x	-4%	0%	u	-1%	x	0%
Cn1ncc2c(NCc3ccccc3Cl)nc(NCCO)nc21	-30%	-2.0%	x	x	x	x	-9%	-11%[46.1 µM]
Cc1ccc(NC(=O)c2ccc3snnc3c2)cc1C	26%&51%	-5.7%	5%	-1%	3%&3%[46.1 µM]	-5%	-3%	u
CNCc1ccccc1Sc1cccc(O)c1	-8%	0.0%	-6%	4%	u	-1%	-2%	u
COc1ccc(/C=N/N2C(=O)CN(C(=O)c3ccccc3)C2c2ccc(OC)cc2)cc1 (stereo unspecified)	-25%	x	3%	0%	x	-3%	x	x
Cc1ccc(-n2ncc(C(=O)NC3CC3)c2C2CCN(C(=O)OC(C)(C)C)CC2)c(C)c1	-2%	x	-9%	-2%	u	-12%	x	u
CCOc1cccc(C(=O)N(Cc2ccco2)C2CCS(=O)(=O)C2)c1 (stereo unspecified)	-6%	-5.5%	27%	-6%	-25%	5%	-11%	11%
COC(=O)CN(c1ccccc1[N+](=O)[O-])S(=O)(=O)c1ccccc1	20%	x	-4%	-1%	-12%[46.1 µM]	2%	x	10%
Cc1ccc(NC(=O)CN(C)C(=O)COC(=O)CNS(=O)(=O)c2ccc(F)c(F)c2F)cc1	7%	x	-1%	-9%	9%	x	x	-5%
Cc1cc(C)c2nc(N)sc2c1	-5%	3.5%	-27%	-20%	12%	-63%	-3%	-9%
NC(=O)c1ccc(=O)n(Cc2ccc(F)c(F)c2)c1	-7%	x	1%	3%	x	3%	x	x
O=C(COc1ccc(Cl)cc1)NCc1ccncc1	-6%	x	5%	0%	25%	x	x	7%
Cc1cc2cc(CCNC(=O)C(=O)c3c[nH]c4ccccc34)c(=O)[nH]c2cc1C	1%	x	6%	-2%	u	x	x	13µM*
O=C(CP(=O)(c1ccccc1)c1ccccc1)N1CCOCC1	-7%	x	-11%	0%	3%[46.1 µM]	-2%	x	u
O=C(Oc1c(CN2CCOCC2)cc(Cl)c2cccnc12)c1ccccc1	-29%	x	-3%	u	u	x	x	u
Cc1ccc2nc3sc(C(=O)Nc4ccc(N5CCOCC5)cc4)c(N)c3cc2c1	x	-5.1%	x	-5%	x	2%	25%	x
c1cc2c(cc1CCNC1CCCCCC1)OCO2	-15%	0.6%	10%	-7%	u	-8%	-2%	-8%
COc1cccc(=O)c2c(C)oc(C)c12	-1%	-1.0%	-9%	2%	-2%	-1%	11%	15%
COc1ccc(C)cc1NC(=O)Cn1c(=O)n(Cc2nc(C)no2)c(=O)c2ccccc21	-22%	-3.4%	x	x	x	x	16%	28%[46.1 µM]
COc1cc(C2CC(=O)Nc3cc4c(cc32)OCO4)cc(OC)c1O (stereo unspecified)	-18%	-2.2%	x	x	7%[46.1 µM]	x	-5%	-8%[46.1 µM]
O=C(CNC(=O)c1cccc(F)c1)OCCOc1cccc(Cl)c1	-22%	x	u	5%	3%	x	x	0%
O=C(/C=C/c1ccc2c(c1)OCO2)c1ccc(F)cc1	40%[activator]	-4.7%	-10%	3%	17%	-47%	-10%	4%
Cc1nc(-c2ccc(S(=O)(=O)Nc3cc(F)ccc3F)cc2)co1	27%	x	-4%	2%	-5%[46.1 µM]	-3%	x	-9%[46.1 µM]
Oc1oc(-c2cccc3ccccc23)nc1/C=N/c1nccs1	-18%	-6.7%	8%	14%	4%	14%	u	22%
COc1ccccc1C(=O)n1nc(C)cc1C	-15%	0.4%	-15%	1%	27%	-10%	-2%	-6%
CCOc1cc(N2CCOCC2)c(OCC)cc1NC(=O)CN1C(=O)NC2(CCCCC2)C1=O	0%	x	0%	0%	u	x	x	25%
O=C(N/C(=C\c1cn(-c2ccccc2)nc1-c1ccccc1)C(=O)N1CCOCC1)c1ccccc1	x	-6.0%	x	10%	-8%	8%	1%	x
O=C(Cc1ccccc1)Nc1ccccc1C(=O)N1CCCCC1	11%	x	3%	-6%	x	1%	x	x
COc1ccccc1CNC(=O)c1cc2c(C)nn(Cc3ccc(F)cc3)c2s1	-20%	-4.8%	4%	-14%	u	17%	-11%	-27%
Cc1ccc(F)cc1NC(=O)c1sc2ncn(CC(=O)N3CCN(c4ccccn4)CC3)c(=O)c2c1C	-8%	x	3%	-3%	x	6%	x	x
COc1cccc(CNC(=O)c2c3c(nc4ccccc24)C(=O)N(C2CCCCC2)C3)c1	-22%	-4.6%	x	x	x	x	8%	-15%[46.1 µM]
CCOC(=O)C1CCN(C(=O)Cn2nc(C)n3nc(-c4ccc(CC)cc4)cc3c2=O)CC1	-20%	x	-4%	-13%	5%[46.1 µM]	4%	x	0%[46.1 µM]
Clc1ccc(-c2noc3ncnc(NCCCN4CCN(c5ccccc5)CC4)c23)cc1	u	-1.3%	x	x	x	x	-1%	-24%[46.1 µM]
CC(C)[C@H](NC(=O)C1CCN(C(=O)[C@H](Cc2ccccc2)NC(=O)OC(C)(C)C)CC1)C(=O)O	6%	x	-16%	1%	10%	3%	x	14%
C=CCNC(=O)c1ccc(Cn2cc(C(F)(F)F)ccc2=O)cc1	-4%	x	7%	3%	26%[46.1 µM]	2%	x	18%[46.1 µM]
CCCCCCC(=O)Nc1nnc(CC)s1	1%	0.5%	14%	7%	-26%	14%	5%	15%
CC1CCCCN1S(=O)(=O)Cc1ccccc1Cl (stereo unspecified)	1%	x	11%	-1%	0%[46.1 µM]	-8%	x	-9%[46.1 µM]
N#Cc1ccc(OCC(O)CS(=O)(=O)c2ccc(F)cc2)cc1 (stereo unspecified)	-14%	x	0%	1%	2%[46.1 µM]	3%	x	8%
NC(=O)c1c(NC(=O)CN2CCOCC2)sc2c1CCC2	-21%	2.5%	-12%	2%	31%	-11%	4%	-7%
CCOc1ccc(OCC(=O)NCCc2nc3ccccc3[nH]2)cc1	20%	5µM*	-14%	5%	4%	0%	0.79µM*	0%
COc1ccccc1OCCNC(=O)c1ccc2c(c1)OCCO2	-13%	x	11%	0%	-29%	x	x	-20%
CCC(C)NC(=O)C1CCC(=O)N(c2ccc3c(c2)OCO3)C1c1ccc(OC)cc1 (stereo unspecified)	-16%	-1.0%	-8%	-2%	x	u	10%	x
CC(C)c1ccc(OCC(=O)NNC(=O)c2cnccn2)cc1	-14%	x	-9%	1%	19%[46.1 µM]	-4%	x	9%
C[N+]1(C)CCN(c2ccccc2)CC1	-19%&0%	-3.2%&1.1%	11%	-4%	-31%&7%&6%&-31%&-31%&-31%&-31%	11%&-6%	-2%&7%	-3%&2%
Cn1nc(C(=O)N2CCN(c3ccccc3)CC2)c2c1-c1ccccc1SC2	4%	-5.6%	x	x	u	x	-14%	-20%[46.1 µM]

New compounds follow:
SMILES	StopGo reporter	Cruzain Triton	RE007 growth inh	SARS PLP yeast	MARV entry inh	NS1 inh	Cruzain noTriton	Lassa entry inh
CC(=O)Nc1ccc(Nc2nc(C)c([N+](=O)[O-])c(Nc3ccccc3)n2)cc1	u	-6.9%	-8%	-25%	u	12%	25%	u
COc1ccc(S(=O)(=O)N2CCC[C@H]2C(=O)NC2=NCCS2)cc1	-15%	4.0%	0%	-1%	1%	4%	3%	29%
CCC(NS(=O)(=O)c1ccc(C)cc1)C(=O)O (stereo unspecified)	18%	0.0%	1%	3%	9%	3%	-2%	5%
O=C(Nc1cc(Sc2ccccn2)cc([N+](=O)[O-])c1)c1ccc([N+](=O)[O-])cc1	22µM*	-0.4%	-40%	1%	u	4%	32µM*	u
Cc1cc(C)nc(SCC(=O)c2ccc(C)c(C)c2)n1	28%	x	-11%	-2%	4%	-12%	x	u
Cc1sc(N)nc1-c1ccccc1	-4%	x	-15%	-6%	-2%	x	x	-6%

From PubChem BioAssay
